Source: PubChem BioAssay (Johns Hopkins Ion Channel Center)
KCNQ2 inh: KCNQ2 potassium channel inhibitors, primary screen, cell-based, CHO-K1, FluxOR thallium flux, B-score (AID 2156); actives 1.1% (n = 310,000); B-score at 10 µM; 20 min; stronger effect = lower value; only compounds with negative scores are shown here; some inactives read as strong as hits; O88943;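 active = fluorescence ratio B-score at most minus 3 library SDs, with starting brightness B-score within 2 library SDs, cut at about -5.5 in these data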
Target sequence (O88943 whole entry, looked up): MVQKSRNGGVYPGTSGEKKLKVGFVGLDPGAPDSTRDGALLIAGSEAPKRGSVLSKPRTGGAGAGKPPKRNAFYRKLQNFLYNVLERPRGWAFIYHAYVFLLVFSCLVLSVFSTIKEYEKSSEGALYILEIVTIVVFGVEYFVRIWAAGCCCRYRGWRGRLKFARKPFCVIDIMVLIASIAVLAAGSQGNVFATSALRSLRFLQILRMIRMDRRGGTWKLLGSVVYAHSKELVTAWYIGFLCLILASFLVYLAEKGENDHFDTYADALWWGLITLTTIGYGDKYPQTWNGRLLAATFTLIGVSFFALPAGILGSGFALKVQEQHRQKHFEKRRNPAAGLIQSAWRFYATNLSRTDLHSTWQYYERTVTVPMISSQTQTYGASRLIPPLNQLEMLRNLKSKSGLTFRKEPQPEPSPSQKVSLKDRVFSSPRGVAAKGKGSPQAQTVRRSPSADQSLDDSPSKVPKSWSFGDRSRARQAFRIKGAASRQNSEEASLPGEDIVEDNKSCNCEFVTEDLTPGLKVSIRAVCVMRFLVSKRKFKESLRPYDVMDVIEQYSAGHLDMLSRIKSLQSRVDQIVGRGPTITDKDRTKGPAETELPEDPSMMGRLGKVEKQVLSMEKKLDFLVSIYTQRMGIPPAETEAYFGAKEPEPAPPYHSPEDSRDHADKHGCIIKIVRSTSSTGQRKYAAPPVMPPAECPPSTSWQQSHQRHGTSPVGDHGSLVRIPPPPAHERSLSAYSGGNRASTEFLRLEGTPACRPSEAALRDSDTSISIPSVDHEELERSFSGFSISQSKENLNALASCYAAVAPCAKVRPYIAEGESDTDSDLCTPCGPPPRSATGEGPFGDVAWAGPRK
KCNQ2 inh baseline: also measured in KCNQ2 inh; calls as there; B-score; measured here: initial fluorescence intensity artifact check;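 brightness before thallium and not channel activity; 0 = typical well and far values either way flag optical interference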
* marks the source's active call; other numbers are inactive results.

Start of the listing, in advance, 10 compounds:
How did O=C(Nc1ccc(C(=O)N2CCCC2)cc1)Nc1ccc(Cl)cc1Cl do in these assays?
KCNQ2 inh: inactive; KCNQ2 inh baseline: 1.89

What do the screens show for `COc1ccc(-n2c(SCC(=O)NCCCN3CCCC3=O)nnc2C(C)N2CCCCC2)cc1` (stereo unspecified)?
KCNQ2 inh: inactive; KCNQ2 inh baseline: 0.06

What do the screens show for `CN(C(=O)CCNC(=O)Cn1cnc2ccccc2c1=O)c1ccc(F)cc1`?
KCNQ2 inh: inactive; KCNQ2 inh baseline: 2.17

Results for Cc1c(C(=O)Nc2ccccc2[N+](=O)[O-])csc1-c1ccccc1 ?
KCNQ2 inh: inactive; KCNQ2 inh baseline: -0.22

How did O=C(CCS(=O)(=O)c1ccccc1)Nc1ccccc1N1CCOCC1 do in these assays?
KCNQ2 inh: inactive; KCNQ2 inh baseline: 0.18

Results for CCCNc1c(NC(=O)c2cccs2)c(=O)oc2ccccc12 ?
KCNQ2 inh: inactive; KCNQ2 inh baseline: 0.19

How did O=C(CSC1=NCCN1)C1COc2ccccc2O1 (stereo unspecified) do in these assays?
KCNQ2 inh: inactive; KCNQ2 inh baseline: 0.01

What do the screens show for `CCC(C)C(Nc1ncnc2scc(-c3ccccc3)c12)C(=O)O` (stereo unspecified)?
KCNQ2 inh: inactive; KCNQ2 inh baseline: -0.18

Results for O=C1Cc2ccccc2Sc2ccccc21 ?
KCNQ2 inh: inactive; KCNQ2 inh baseline: -0.41

Results for COc1ccc(OC)c(-c2c(=O)n(OCc3ccccc3Br)c3ccccc3[n+]2[O-])c1 ?
KCNQ2 inh: inactive; KCNQ2 inh baseline: -1.16

This part in full, from the start:
How did O=C(Nc1ccc(C(=O)N2CCCC2)cc1)Nc1ccc(Cl)cc1Cl do in these assays?
KCNQ2 inh: inactive; KCNQ2 inh baseline: 1.89

What do the screens show for `COc1ccc(-n2c(SCC(=O)NCCCN3CCCC3=O)nnc2C(C)N2CCCCC2)cc1` (stereo unspecified)?
KCNQ2 inh: inactive; KCNQ2 inh baseline: 0.06

What do the screens show for `CN(C(=O)CCNC(=O)Cn1cnc2ccccc2c1=O)c1ccc(F)cc1`?
KCNQ2 inh: inactive; KCNQ2 inh baseline: 2.17

Results for Cc1c(C(=O)Nc2ccccc2[N+](=O)[O-])csc1-c1ccccc1 ?
KCNQ2 inh: inactive; KCNQ2 inh baseline: -0.22

How did O=C(CCS(=O)(=O)c1ccccc1)Nc1ccccc1N1CCOCC1 do in these assays?
KCNQ2 inh: inactive; KCNQ2 inh baseline: 0.18

Results for CCCNc1c(NC(=O)c2cccs2)c(=O)oc2ccccc12 ?
KCNQ2 inh: inactive; KCNQ2 inh baseline: 0.19

How did O=C(CSC1=NCCN1)C1COc2ccccc2O1 (stereo unspecified) do in these assays?
KCNQ2 inh: inactive; KCNQ2 inh baseline: 0.01

What do the screens show for `CCC(C)C(Nc1ncnc2scc(-c3ccccc3)c12)C(=O)O` (stereo unspecified)?
KCNQ2 inh: inactive; KCNQ2 inh baseline: -0.18

Results for O=C1Cc2ccccc2Sc2ccccc21 ?
KCNQ2 inh: inactive; KCNQ2 inh baseline: -0.41

Results for COc1ccc(OC)c(-c2c(=O)n(OCc3ccccc3Br)c3ccccc3[n+]2[O-])c1 ?
KCNQ2 inh: inactive; KCNQ2 inh baseline: -1.16

Results for COc1ccc(CCNC(=O)C2CC(=O)N(c3ccc(Br)cc3)C2)cc1OC (stereo unspecified) ?
KCNQ2 inh: inactive; KCNQ2 inh baseline: -0.42

What do the screens show for `CN(c1ccccc1)S(=O)(=O)c1ccc(NC(=O)COc2ccccc2)cc1`?
KCNQ2 inh: inactive; KCNQ2 inh baseline: -0.1

Results for c1ccc(-c2noc(-c3ccccc3-c3ccccc3)n2)cc1 ?
KCNQ2 inh: -8.63*; KCNQ2 inh baseline: -0.02*

What do the screens show for `CCn1c(NC2CCCCC2)nc2ccccc21`?
KCNQ2 inh: inactive; KCNQ2 inh baseline: 0.92

How did COc1cc(C(F)(F)F)nc(-c2ccccn2)n1 do in these assays?
KCNQ2 inh: inactive; KCNQ2 inh baseline: 0.32

What do the screens show for `COC(=O)c1sc(S(=O)(=O)N2CCC(C(=O)O)CC2)c(C(=O)OC)c1C`?
KCNQ2 inh: inactive; KCNQ2 inh baseline: 0.81

Results for O=C(NCCc1ccc(F)cc1)c1cc(=O)c2ccccc2o1 ?
KCNQ2 inh: inactive; KCNQ2 inh baseline: 0.99

What do the screens show for `C[C@@H](C(=O)Nc1nc2ccccc2s1)N1C(=O)C2CC=CCC2C1=O` (stereo partly specified)?
KCNQ2 inh: inactive; KCNQ2 inh baseline: 0.85

How did CC1(C)CC(C(=O)NCCC(c2ccccc2)c2ccco2)CCO1 (stereo unspecified) do in these assays?
KCNQ2 inh: inactive; KCNQ2 inh baseline: -1.33

What do the screens show for `CNc1cnn(-c2ccc(C)cc2)c(=O)c1Sc1ccc(C)cc1`?
KCNQ2 inh: inactive; KCNQ2 inh baseline: 0.11

Results for C/C(=N\NC(=O)c1cc(C)nc2ccccc12)c1ccncc1 ?
KCNQ2 inh: inactive; KCNQ2 inh baseline: -0.32

Results for COc1ccc(CNC(=O)CN2C(=O)C(C)N(c3ccc(C)cc3)C2=O)cc1 (stereo unspecified) ?
KCNQ2 inh: inactive; KCNQ2 inh baseline: 0.32

Results for O=C(CN(Cc1ccccc1)S(=O)(=O)c1ccc(F)cc1)NCc1ccncc1 ?
KCNQ2 inh: inactive; KCNQ2 inh baseline: 1.2

How did CC1CCN(S(=O)(=O)c2cn(CC(=O)Nc3ccc(OC(F)(F)F)cc3)cn2)CC1 do in these assays?
KCNQ2 inh: inactive; KCNQ2 inh baseline: -1.63

How did Cn1c(N)c(C(=O)COC(=O)C2CC(O)CN2S(=O)(=O)c2ccc(Cl)cc2)c(=O)n(C)c1=O (stereo unspecified) do in these assays?
KCNQ2 inh: inactive; KCNQ2 inh baseline: 1.86

What do the screens show for `COc1ccc(N(C)S(=O)(=O)c2cccc(C(=O)NCC(c3cccs3)N(C)C)c2)cc1` (stereo unspecified)?
KCNQ2 inh: inactive; KCNQ2 inh baseline: -0.49

Results for Cc1ccc(N2C(=O)C3C(c4ccccc4)(C2=O)C3(c2ccccc2)c2ccccc2)cc1 (stereo unspecified) ?
KCNQ2 inh: -9.48*; KCNQ2 inh baseline: 0.14*

Results for C=C(C)CN1CCN(S(=O)(=O)c2ccc(C)c(N(C)S(=O)(=O)c3ccc(C)cc3)c2C)CC1 ?
KCNQ2 inh: -8.51*; KCNQ2 inh baseline: -3.61*

What do the screens show for `CC1Cc2ccccc2N1C(=O)COC(=O)c1c2c(nc3ccccc13)CCCCC2` (stereo unspecified)?
KCNQ2 inh: inactive; KCNQ2 inh baseline: 1.22

How did O=C(OCC#CCSc1nnc(-c2ccccc2)o1)c1ccco1 do in these assays?
KCNQ2 inh: inactive; KCNQ2 inh baseline: -0.65

Results for O=C(N[C@@H]1CCC(=O)N(CC[C@H](Oc2ccccc2)c2ccccc2)CC1)OCc1ccccc1 ?
KCNQ2 inh: inactive; KCNQ2 inh baseline: -0.98

How did Cc1ccc(N2CC(C(=O)Nc3ccc(S(=O)(=O)N4CCCC4)cc3)CC2=O)cc1C (stereo unspecified) do in these assays?
KCNQ2 inh: inactive; KCNQ2 inh baseline: 2.78

How did CN(C(=O)/C=C/c1ccc([N+](=O)[O-])s1)c1ccccc1 do in these assays?
KCNQ2 inh: inactive; KCNQ2 inh baseline: 0.23

How did Cc1nn(-c2ccccc2)c(C)c1/C=N\NS(=O)(=O)c1ccc(Cl)cc1 do in these assays?
KCNQ2 inh: inactive; KCNQ2 inh baseline: 1.62

What do the screens show for `CN(CCC1CCCCO1)C(=O)CCc1nnc(Cc2c[nH]c3ccccc23)o1` (stereo unspecified)?
KCNQ2 inh: inactive; KCNQ2 inh baseline: 1.64

How did Cc1ccnc(SCC(=O)c2ccc(Br)cc2)c1C#N do in these assays?
KCNQ2 inh: inactive; KCNQ2 inh baseline: 1.05

How did Cn1cc(SCC(N)=O)c2ccccc21 do in these assays?
KCNQ2 inh: inactive; KCNQ2 inh baseline: 2.63

Results for O=C(COC(=O)c1cnccn1)c1ccc(C2CCCCC2)cc1 ?
KCNQ2 inh: inactive; KCNQ2 inh baseline: -0.31

How did Cc1cccc(-n2c(O)c(/C=N/NC(=O)c3ccccc3Cl)c3ccccc3c2=O)n1 do in these assays?
KCNQ2 inh: inactive; KCNQ2 inh baseline: 2.52

What do the screens show for `CCN1C(c2ccc(F)cc2)=CS/C1=C(\C#N)c1nnc2n1-c1ccccc1SC2`?
KCNQ2 inh: inactive; KCNQ2 inh baseline: -1.13

Results for [N-]=[N+]=NC[C@H](Cc1ccccc1)N1CC[C@@H](OCc2ccccc2)CCC1=O ?
KCNQ2 inh: inactive; KCNQ2 inh baseline: -1.31

Results for CC(C)(C)c1nc(NCCN2CCOCC2)c2nnn(Cc3ccccc3Cl)c2n1 ?
KCNQ2 inh: inactive; KCNQ2 inh baseline: 1.23

How did CC(NC(=O)CN(C)Cc1ccc(Br)cc1)c1ccccc1 (stereo unspecified) do in these assays?
KCNQ2 inh: inactive; KCNQ2 inh baseline: 0.12

How did Cc1cc2c(ccc3c2no[n+]3[O-])nn1 do in these assays?
KCNQ2 inh: inactive; KCNQ2 inh baseline: -2.31

How did COc1ccccc1N1CCN(C(=O)C(=O)c2cn(CC(=O)N3CCOCC3)c3ccccc23)CC1 do in these assays?
KCNQ2 inh: inactive; KCNQ2 inh baseline: -1.63

What do the screens show for `CN(C)c1ccc(NC(=O)c2cn(-c3ccccc3)nc2-c2cccs2)cc1`?
KCNQ2 inh: inactive; KCNQ2 inh baseline: 0.96

What do the screens show for `CCO[C@H]1OC(C(=O)N2CCCCCCC2)=C[C@@H](c2coc3ccccc3c2=O)[C@@H]1CCCO`?
KCNQ2 inh: inactive; KCNQ2 inh baseline: 1.19

What do the screens show for `COc1ccc(S(=O)(=O)N2CCOC2CNC(=O)C(=O)NCCc2ccccc2OC)cc1` (stereo unspecified)?
KCNQ2 inh: inactive; KCNQ2 inh baseline: 0.11

Results for CCC(C)[C@H](NC(=O)OC(C)(C)C)C(=O)N/N=C/C1=Cc2ccccc2OC1 (stereo partly specified) ?
KCNQ2 inh: inactive; KCNQ2 inh baseline: -0.32

How did Clc1ccccc1C1=Nn2c(nnc2-c2ccncc2)SC1 do in these assays?
KCNQ2 inh: inactive; KCNQ2 inh baseline: -0.57

Results for O=[N+]([O-])c1ccc(S(=O)(=O)N2CCN(c3ccnc4cc(Cl)ccc34)CC2)cc1 ?
KCNQ2 inh: inactive; KCNQ2 inh baseline: -0.01

How did S=c1nc(NCCc2ccccc2Cl)c2ccccc2[nH]1 do in these assays?
KCNQ2 inh: inactive; KCNQ2 inh baseline: 0.19

What do the screens show for `COc1ccc(CN2CCCC(N3CCc4ccccc4C3)C2)c(O)c1` (stereo unspecified)?
KCNQ2 inh: inactive; KCNQ2 inh baseline: 0.06

What do the screens show for `Cc1cc(Cl)cc(Cl)c1OCCOCCN(C)C`?
KCNQ2 inh: inactive; KCNQ2 inh baseline: 0.62

How did Cc1cccc(-c2sc(Nc3ccccc3)n[n+]2-c2ccc(F)cc2)c1 do in these assays?
KCNQ2 inh: inactive; KCNQ2 inh baseline: -1.13

Results for CCN(CC)C(=O)CSc1nc2ccsc2c(=O)n1CCCC(=O)NCCc1ccc(S(N)(=O)=O)cc1 ?
KCNQ2 inh: inactive; KCNQ2 inh baseline: -1.36

How did Cc1[nH][nH]c(=O)c1C(c1ccc2c(c1)OCO2)c1c(C)[nH][nH]c1=O do in these assays?
KCNQ2 inh: inactive; KCNQ2 inh baseline: -0.01

Results for CC(C)N1CCC(=NNc2ccc(S(=O)(=O)N3CCOCC3)cc2[N+](=O)[O-])CC1 ?
KCNQ2 inh: inactive; KCNQ2 inh baseline: 0.01

How did CCCC1(C(=O)OC)NC(c2ccc(OC)c(OC)c2)C2C(=O)N(c3cccc(C(C)=O)c3)C(=O)C21 (stereo unspecified) do in these assays?
KCNQ2 inh: inactive; KCNQ2 inh baseline: -0.67

Results for O=C(NC(Cc1ccccc1)c1ccc2c(c1)OCCCO2)c1ccc(F)cc1 (stereo unspecified) ?
KCNQ2 inh: inactive; KCNQ2 inh baseline: -0.01

Results for CCCCCCCCOC(=O)c1nc(Cl)c(Cl)c(N)c1Cl ?
KCNQ2 inh: inactive; KCNQ2 inh baseline: -0.82

Results for CN(C(=O)COC(=O)CNC(=O)c1ccc(Cl)cc1Cl)c1ccccc1 ?
KCNQ2 inh: inactive; KCNQ2 inh baseline: 0.43

How did O=S1(=O)CCO[C@H]2Cc3ccccc3[C@H]2N1Cc1cccc(Cl)c1 do in these assays?
KCNQ2 inh: inactive; KCNQ2 inh baseline: -0.76

Results for Cn1c(-c2sccc2OCc2ccccc2)n[nH]c1=S ?
KCNQ2 inh: inactive; KCNQ2 inh baseline: 0.75

Results for CCN(CC(=O)Nc1cc(Cl)ccc1C)C(=O)CCOc1ccccc1C ?
KCNQ2 inh: inactive; KCNQ2 inh baseline: 0.57

How did CC(=O)N1c2ccccc2NC2=C(C(=O)CCC2)C1c1ccco1 (stereo unspecified) do in these assays?
KCNQ2 inh: inactive; KCNQ2 inh baseline: 0.94

How did CC1CCc2cc(F)cc3c(O)c(C(=O)NCCN(C)C)c(=O)n1c23 (stereo unspecified) do in these assays?
KCNQ2 inh: inactive; KCNQ2 inh baseline: -0.48

Results for CCc1cc2cc(C)ccc2nc1SCC(=O)Nc1cc(C)on1 ?
KCNQ2 inh: inactive; KCNQ2 inh baseline: 0.79

Results for CCN(CC)S(=O)(=O)c1cccc(-c2cn3cc(C)ccc3n2)c1 ?
KCNQ2 inh: inactive; KCNQ2 inh baseline: 0.43

Results for COc1cccc(C(c2nnnn2Cc2ccccc2)N2CCN(C3CCCC3)CC2)c1OC (stereo unspecified) ?
KCNQ2 inh: inactive; KCNQ2 inh baseline: 2.11

What do the screens show for `O=C(C1CCN(S(=O)(=O)N2CCC3(CC2)OCCO3)CC1)N1CCC(Cc2ccccc2)CC1`?
KCNQ2 inh: inactive; KCNQ2 inh baseline: -1.85

An excerpt, so the mix of outcomes need not match the whole.
